Bioassay records as filed in PubChem.
Cruzain inh Det – qHTS Assay for Promiscuous and Specific Inhibitors of Cruzain (with detergent); Potency, µM, for the others: max response, negative = inhibition, hits mostly inhibitors; AID 1478, 2009; purified cruzain, Z-FR-AMC fluorescence, 0.01% Triton; 200,000 tested, 0.43% active; active = well fitted curve in the direction sought with a large enough effect; inconclusive = small, poorly fitted or top-dose-only effect, or another doubt; inactive = no such curve, though single readings can be large; an effect the other way counts as inactive or inconclusive;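 note: plate controls were neutral wells for no effect and buffer without enzyme for full effect; nearly all actives have a fitted effect of over 40% in size; top concentration of the series not given in the record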
Target sequence (P25779 123-467 limits assumed): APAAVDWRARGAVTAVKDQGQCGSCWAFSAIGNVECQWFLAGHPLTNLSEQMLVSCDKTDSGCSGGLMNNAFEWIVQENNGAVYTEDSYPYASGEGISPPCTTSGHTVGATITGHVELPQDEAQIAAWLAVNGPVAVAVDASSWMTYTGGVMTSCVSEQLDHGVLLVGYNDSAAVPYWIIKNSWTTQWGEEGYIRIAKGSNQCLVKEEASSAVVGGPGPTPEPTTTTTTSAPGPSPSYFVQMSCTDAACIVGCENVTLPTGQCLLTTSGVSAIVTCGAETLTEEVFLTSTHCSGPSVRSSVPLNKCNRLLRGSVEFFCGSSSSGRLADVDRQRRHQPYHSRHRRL
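Cysteine protease activity tested under reducing, mildly acidic conditions (100 mM sodium acetate pH 5.5, 5 mM DTT) plus 0.01% Triton X-100. Cruzain 1.5 nM; substrate Z-FR-AMC 2 uM; 15 min compound preincubation at room temperature.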
LASV entry inh – qHTS for Inhibitors of binding or entry into cells for Lassa Virus; AID 540256, 2011; Lassa virus pseudotype entry inhibition, cell reporter; control for the full effect not named in the record; 300,000 tested, 1.2% active; Potency, µM (highest dose often 37.9 µM), for inactives: top-dose activity change, negative = inhibition, most hits filed as inhibitors; active means well fitted inhibition curve with a large enough effect; inconclusive means small, poorly fitted or top-dose-only effect, or effect the other way; inactive means flat fitted curve, though single readings scatter; tested in HEK293 cells; note: % is set by controls: 0 for no effect and ±100 for the full control effect; nearly all actives have a fitted effect of over 50% in size; luciferase read-out
Marburg entry inh – qHTS for inhibitors of binding or entry into cells for Marburg Virus; Potency, µM (series often up to 37.8 µM), without a hit: at the top dose activity change, negative = inhibition, most hits filed as inhibitors; Marburg virus pseudotyped entry inhibition, cell reporter; control for the full effect not named in the record; about a third of the inactives were read at about 46 µM; 300,000 tested, 1.8% active; AID 540276, 2011; active = well fitted inhibition curve with a large enough effect; inconclusive = small, poorly fitted or top-dose-only effect, or effect the other way; inactive = flat fitted curve, though single readings scatter; tested in HEK293 cells; about a fifth of its hits are not listed in these tables; note: % is set by controls: 0 for no effect and ±100 for the full control effect; luciferase read-out
RE007 growth inh – qHTS Assay for Inhibitors of the HIV-1 protein Vpr; S. pombe RE007 Vpr strain, BacTiter-Glo ATP luminescence, 24 h; control for the full effect not named in the record; Potency, µM (titrated, usually from 92.2 µM), without a hit: at the top dose activity change, negative = less growth; 360,000 tested, 0.21% active; AID 651644, 2012; active = well fitted falling curve with a large enough effect; inconclusive = small, poorly fitted or top-dose-only effect; inactive = no such curve, though single readings can be large or run the other way;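 note: % is set by controls: 0 for no effect and ±100 for the full control effect; nearly all actives have a fitted effect of over 50% in size; the assay follows cell death caused by Vpr and the record does not say whether a fall means rescue or toxicity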
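Fission yeast strain RE007, carrying one chromosomally integrated HIV-1 vpr copy, was seeded at OD 0.01 in PMG+AL medium with 23 nL pinned compound. After 24 h at 30 °C and 99% humidity, viability was read by BacTiter-Glo luminescence.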
2A StopGo – High Throughput Screening for Foot and Mouth Disease Virus Antivirals; human cells with a luciferase reporter of 2A StopGo recoding; control for the full effect not named in the record; Potency, µM (series often up to 57.9 µM), for inactives: top-dose signal change, negative = less light; 410,000 tested, 1.2% active; AID 1159524, 2015; active = well fitted falling curve with a large enough effect; inconclusive = small, poorly fitted or top-dose-only effect; inactive = no such curve, though single readings can be large or run the other way; tested in HEK293T cells; note: % is set by controls: 0 for no effect and ±100 for the full control effect; nearly all actives have a fitted effect of over 45% in size; luciferase light after 4 h
Cruzain noTriton – qHTS Assay for Promiscuous and Specific Inhibitors of Cruzain (without detergent). AID 1476, 2009. Cruzipain (Trypanosoma cruzi), P25779. Potency, µM, for inactives: max response, negative = inhibition, actives largely listed as inhibitors. purified cruzain, Z-FR-AMC fluorescence, no detergent. 200,000 tested, 2.3% active; active = well fitted curve in the direction sought with a large enough effect; inconclusive = small, poorly fitted or top-dose-only effect, or another doubt; inactive = no such curve, though single readings can be large; an effect the other way counts as inactive or inconclusive;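 note: plate controls were enzyme without inhibitor for no effect and buffer without enzyme for full effect; nearly all actives have a fitted effect of over 40% in size; top concentration of the series not given in the record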
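Detergent-free condition (0.00005% Triton X-100) in acetate buffer pH 5.5 with DTT. 1.5 nM enzyme and compound were pre-mixed 15 min, then 2 uM Z-FR-AMC substrate added; reaction progress from fluorescence change between first and third reads (60 s).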
SARS PLpro yeast – qHTS of Yeast-based Assay for SARS-CoV PLP. S. cerevisiae expressing SARS-CoV PLpro, growth rescue; control for the full effect not named in the record. Potency, µM (doses to about 32.9 µM), for the others: at the highest dose activity, positive = growth rescue. 330,000 tested, 0.19% active. AID 485353, 2010; note: 0% is about no effect; nearly all actives have a fitted effect of over 55% in size; growth read by luminescence after 48 h
NS1 function inh – qHTS Assay for Inhibitors of Influenza NS1 Protein Function. 270,000 tested, 0.4% active. AID 2326, 2010. S. cerevisiae slowed by influenza A NS1, growth recovery by OD600. Potency, µM (highest dose often 46.1 µM), inactives show at the highest dose activity, positive = more growth; note: actives are rising curves; nearly all actives have a fitted effect of over 50% in size
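OD600 was taken as the measure of yeast growth restored by compound in an NS1-expressing S. cerevisiae strain. Cells had been washed out of glucose medium and diluted 1:100 into galactose -URA medium, pH 6.0.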
* marks the source's active call; other numbers are inactive results; ? = inconclusive; . = no result given; & = joins results of further samples; ! = not confirmed by another sample; [ ] = remark or other dose. Unless noted, calls come from the whole dose curve; as a rule, active means well fitted rising curve with a large enough effect; inconclusive means small, poorly fitted or top-dose-only effect; inactive means no such curve, though single readings can be large or run the other way. Potency is the fitted concentration of half-maximal effect.

canonical_smiles | Cruzain inh Det | LASV entry inh | Marburg entry inh | RE007 growth inh | 2A StopGo | Cruzain noTriton | SARS PLpro yeast | NS1 function inh
O=C(Nc1ncn[nH]1)c1ccc(S(=O)(=O)N2CCOCC2)cc1 | . | . | . | 19% | -9% | . | 1% | 3%
CC(C)c1nc2ccc(C(=O)NC(C)c3ccccc3)cc2o1 (stereo unspecified) | 1.8% | 3%[46.1 µM] | . | . | 15% | -2% | . | .
CC(=O)Nc1ccc(/C=N/Nc2nc3ccccc3s2)cc1 | . | . | . | -1% | 14% | . | 1% | 3%
C[C@@H]1CCC(=O)N(C[C@@H](C)CC#N)CC1 | . | . | . | -16% | -8% | . | 18% | 13%
Cc1ccsc1CNC1CCCCC1 | . | . | . | 13% | 0% | . | 2% | ?
O=C(Nc1ccncc1)Nc1cccc(Cl)c1 | . | . | . | -8% | 6% | . | -2% | -12%
C/C(=C\c1ccc(C(=O)O)cc1)c1ccc2c(c1)C(C)(C)CCC2(C)C | -8.4%&-0.5%&1.9% | 7% | ? | 19% | -29% | 6.3µM*! | . | -5%
Cc1ccc(CNC(=O)CCCCn2c(=O)c3ccccc3n(Cc3ccc(C)cc3)c2=O)cc1 | -0.1% | 2%[46.1 µM] | 1%[46.1 µM] | . | -15% | 1% | . | .
COc1ccc(OC)c(NC(=O)c2cccc(S(=O)(=O)N(Cc3ccccc3)c3ccccc3OC)c2)c1 | -0.6% | 6% | ? | 0% | -13% | ? | -3% | 6%
Cc1ccc(CSc2nc3ccccc3c(=O)n2C)cc1 | . | -15% | ? | 16% | ? | . | 0% | -3%
Cc1cc2occ(CC(=O)NC3CCCc4ccccc43)c2cc1C (stereo unspecified) | -3.6% | -16% | -18% | 2% | 13% | -2% | -11% | 1%
CC1=NN(C(C#N)c2cccc([N+](=O)[O-])c2)C(C)(C)C1 (stereo unspecified) | -2.1% | -1% | 0% | -12% | -18% | -15% | 5% | -2%
COc1cccc(C2CC(=O)N3CN(c4ccccc4F)CSC3=C2C#N)c1 (stereo unspecified) | -0.9% | . | . | -18% | -3% | -7% | -1% | 4%
Cc1ccc(S(=O)(=O)N2CCOCC2)cc1C(=O)N(Cc1nnc(-c2ccccc2Cl)o1)C1CC1 | . | -1% | -22% | -23% | ? | . | 1% | -3%
CC(=O)c1cc(-c2ccccc2)n(CC(=O)N2CCC(C)CC2)c1C | 0.5% | -4% | 17% | 7% | 11% | 1% | 16% | -8%
COc1ccc(C(C)C)cc1S(=O)(=O)N1CCC(C(=O)NCC2CCCO2)CC1 (stereo unspecified) | . | -1% | 16% | -10% | -16% | . | 1% | -11%
Cc1ccccc1-n1nc(C)c2c1NC(=O)CSC2c1ccccc1C(F)(F)F (stereo unspecified) | -3.7% | 5%[46.1 µM] | 8%[46.1 µM] | . | 0% | -1% | . | .
O=C(Nc1ccc(Oc2ccc(S(=O)(=O)N3CCOCC3)cn2)cc1)c1ccco1 | -1.3% | -19% | 3%&3% | -8% | -12% | -1% | 2% | -7%
CCN(CC)S(=O)(=O)c1ccc2c(c1)N(CC(=O)N1CCN(c3cc(Cl)ccc3C)CC1)C(=O)CO2 | 1.2% | ? | . | . | ? | -8% | . | .
COc1ccc(NC(=O)C2=NN(C3CCS(=O)(=O)C3)C(=O)CC2)cc1S(N)(=O)=O (stereo unspecified) | . | 29% | 17% | 1% | -6% | . | 2% | .
O=C(c1ccccc1NS(=O)(=O)c1ccc(F)cc1)N1CCCC1 | 0.7% | 13% | -16% | 10% | -4% | -6% | -10% | 6%
CCOC(=O)c1cc(-c2ccc(C)cc2)n(CCC(=O)NCCN(C)C)c1C | 3.4% | ? | ? | -4% | -5% | 1% | -1% | 6%
CCOc1ccc2c(c1)C(C)=CC(C)(C)N2S(=O)(=O)c1ccc(NC(C)=O)cc1 | . | . | . | -3% | 10% | . | 5% | -12%
COc1ccccc1N(Cc1cc(=O)[nH]c2ccccc12)C(=O)c1ccccc1 | . | -16%[46.1 µM] | -3%[46.1 µM] | -6% | -22% | . | 0% | 1%
CCn1cc(CCCC(=O)NCc2ccccc2OC)c2ccccc21 | . | . | . | -5% | -21% | . | -4% | -41%
FC(F)(F)c1cccc(Nc2nc3nonc3nc2Nc2ccc(Cl)cc2)c1 | -12% | ? | . | . | ? | -4% | . | .
CNC(=S)N(CCN(C)C)Cc1cc2cc3c(cc2[nH]c1=O)OCO3 | . | 3%[46.1 µM] | -8%[46.1 µM] | 6% | -8% | . | 7% | -6%
O=C(c1cc2sccc2n1Cc1ccc(F)cc1)N1CCCc2ccccc21 | -5.2% | -25% | ? | -1% | -22% | -15% | -14% | 13%
O=C(CNc1cccc(Cl)c1)NNC(=S)NCc1ccccc1 | . | -15% | -26% | 9% | -24% | . | 16% | -2%
N#C/C(=N\Nc1cccc(C(F)(F)F)c1)C(=O)c1csc(-c2cccnc2)n1 | . | . | . | -3% | ? | . | -12% | -46%
OCCSc1ncnc2c1oc1ccccc12 | -2.8% | 3% | 21% | -28% | 10% | -8% | 4% | -12%
COc1ccc(NC(=O)CCS(=O)(=O)c2ccc3c(c2)n(C)c(=O)c(=O)n3C)cc1Cl | -2.7% | -2%[46.1 µM] | 10%[46.1 µM] | . | -12% | 5% | . | .
CCOc1ccc2[nH]cc(S(=O)(=O)c3ccc(F)cc3)c(=O)c2c1 | 3.6% | . | 3% | 14% | -26% | 0% | 1% | -2%
Cc1cccc(NC(=O)CSc2nnc(-c3ccco3)c(-c3ccco3)n2)c1 | . | -13% | -17%[46.1 µM] | 9% | ? | . | -1% | -4%
COc1cc(C(=O)Nc2ccccc2C2COC(=O)C2=N)cc(OC)c1OC (stereo unspecified) | -0.4% | 10% | -13% | -10% | -22% | 2% | 11% | 11%
Cn1c(Cn2cnc([N+](=O)[O-])n2)nnc1SCC(=O)Nc1ccccc1 | 1.5% | 14% | -1% | -5% | 5% | 9% | 13% | 12%
Brc1ccc(-c2cn3cc(Cc4ccccc4)sc3n2)cc1 | 0.6% | 17%[46.1 µM] | ? | . | 24% | ? | . | .
Cc1cc(C)cc(Oc2ncnc3c2ncn3Cc2c(Cl)cccc2Cl)c1 | -3.5% | 9% | -1% | 12% | -18% | 5% | -33% | 5%
CCNc1nc(NCC)n2c(SCc3nc4ccccc4c(=O)[nH]3)nnc2n1 | 6.9% | 2% | 17%&17% | -16% | -3% | 30% | 1% | 1%
NC(=O)c1ccc(NCC2COc3ccccc3O2)c([N+](=O)[O-])c1 (stereo unspecified) | . | ? | 0% | -8% | 9% | . | -4% | -2%
Cc1c(C(=O)Nc2ccccc2Cl)oc2ccc(S(=O)(=O)N3CCC4(CC3)OCCO4)cc12 | 6.3% | -10% | -4%&-29% | 5% | ? | ? | -6% | ?
Clc1cccc(-c2nnc(SCc3nc4ccccc4[nH]3)n2Cc2ccco2)c1 | -14% | -12% | 0% | -14% | -23% | -28% | -3% | -64%
Cc1cccc(-c2noc(CN(C(C)C)S(=O)(=O)c3ccc(F)cc3)n2)c1 | -4.5% | -10% | -29% | 9% | ? | 11% | -2% | -16%
COC(=O)C1(C(O)C(=O)c2ccc(C)cc2C)CCCCC1 (stereo unspecified) | -0.5% | -18% | -16% | -6% | 0% | -2% | -9% | -7%
COCCc1nc2ccc(C(=O)N(C)Cc3cccc(-n4cccn4)c3)cc2o1 | . | 6% | -18% | -7% | -2% | . | -3% | -12%
C/C(=C\C(=O)c1ccc(Cl)s1)N(C)C | . | 8%[46.1 µM] | 7%[46.1 µM] | -3% | 23% | . | 0% | 0%
O=C(Oc1ccccc1[N+](=O)[O-])c1cccnc1 | 3.0% | -4% | ? | -1% | -13% | 2% | -4% | -20%
Cc1ccc(-n2c(C)cc(C(=O)COc3cccnc3[N+](=O)[O-])c2C)cc1 | -5.8% | ? | . | -2% | ? | -26% | 18% | -2%
c1ccc(-n2nnnc2-c2cccc3ccccc23)cc1 | . | ? | ? | -20% | -2% | . | . | .
Cc1ccc(C)c(N2CCN(C(=O)C3CCN(c4nc5ccc(C)cc5[nH]4)CC3)CC2)c1 | -1.7% | -26%[46.1 µM] | . | . | ? | 5% | . | .
CCNC(=S)N1CCN(S(=O)(=O)/C=C/c2ccccc2)CC1 | . | -9%[46.1 µM] | 12%[46.1 µM] | 1% | 21% | . | 9% | -5%
O=C(Nc1cccnc1Oc1ccc(Cl)cc1)c1cccc2ccccc12 | . | ? | ? | 23% | -9% | . | 0% | 6%
COc1cc2c(cc1OC)C(C)N(C(=O)c1c(C)noc1C)CC2 (stereo unspecified) | . | . | . | 0% | -7% | . | 1% | 2%
COc1ccc(CNC(=O)Cn2nc(Cc3cccnc3)c3ccccc3c2=O)cc1 | 6.0% | . | 1% | 3% | -14% | -17% | 6% | 9%
CC(=O)c1c(C)[nH]c(C(=O)COC(=O)CCCOc2ccccc2)c1C | . | 4% | 11%[46.1 µM] | 19% | -15% | . | -2% | .
Cc1cc(=O)n2[nH]c(-c3ccsc3-n3c(C)ccc3C)cc2n1 | . | . | . | -3% | -28% | . | 2% | 8%
FC(F)(F)c1cc(C(F)(F)F)n2nc(-c3sccc3-n3cccc3)cc2n1 | -8.9% | -21% | -27% | 6% | -8% | 5% | 0% | -6%
COCCN1C=C(C(=O)OC)C(c2ccccc2C(F)(F)F)C(C(=O)OC)=C1 | -19% | ? | 0% | 3% | -29% | 29% | -1% | 8%
NNC(=O)c1ccc(Cn2cc(Br)cn2)o1 | . | . | . | -20% | 2% | . | 0% | 0%
